BJeLR viability = MLPCN primary cell-based screen for lethality selective to Ras in HRASV12 cells. AID 1554, 2009. inhibition, % (concentration not given with the values). BJeLR (HRASV12) viability, CellTiter-Glo ATP luminescence, 48 h; reference of the scale not given here. 300,000 tested, 0.17% active;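 active = replicate mean above 50%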;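 note: 50 nL library stock added to about 25 µL; numbers are from one replicate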
Mtb hypoxia inh = PubChem AID 1159583. M. tuberculosis hypoxia-regulated fluorescent reporter, fluorescence. fluorescence inhibition, % (concentration not given with the values). 300,000 tested, 0.1% active;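 active = 35 to 45% if threefold the growth effect, above 45% if 1.5-fold the growth effect; inactive = the rest, general growth blockers included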;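 note: wells of about 50 µL received 100 nL stock; 0% = vehicle wells and 100% = reference inhibitor wells; whole bacteria with a GFP reporter of the hypoxia response; strong numbers were not always called active; many hits fall short of the cut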
Sa ugtP lethal = growth inhibition of ugtP-null S. aureus, primary screen, RN4220 ugtP deletion, OD600; 16 h; some inactives read as strong as hits; growth inhibition, % (no concentration beside the values); 330,000 tested, 0.54% active;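 active = z-score under -3 and OD600 up to 0.15 on both plates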;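 note: plate controls were untreated wells for no effect and antibiotic for full effect; wells of about 80 µL received 100 nL stock; the first replicate is given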
PrP 5UTR inh = inhibition of PrP 5' UTR reporter expression; cell-based PrP 5' UTR mRNA reporter, plate reader; inhibition, % (test concentration not listed); 340,000 tested, 0.35% active; AID 488862, 2010;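 active = every replicate at 50% or more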;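 note: 0 = median of the neutral control wells; tested in H4 reporter cells; numbers are from one replicate; inactives centre near -14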
RN4220 kill = growth inhibition of S. aureus RN4220, primary screen, OD600. 330,000 tested, 0.33% active. inhibition, % (no concentration beside the values). 16 h;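 active = z-score of -3 or lower and OD600 up to 0.18 on both plates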;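 note: plate controls were untreated cells for no effect and reference antibiotic for full effect; stock transfer was 100 nL into about 80 µL; one replicate is shown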
Bead autofluor = flagged as autofluorescent in microsphere protease counterscreen; compound autofluorescence counterscreen, microsphere flow cytometry; hits give high values; fluorescence intensity (concentration not given with the values); 360,000 tested, 3.1% active;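 active = at least 3 SD above the mean of all compounds, about 16000 in these data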;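 note: 100 nL of 1 mM stock went into each well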
Mtb hypoxia inh growth = further read-out of Mtb hypoxia inh, marked with its call; growth inhibition, %; measured here: M. tuberculosis growth (absorbance);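 0% = vehicle and 100% = reference antibiotic; read after six days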
* marks the source's active call; other numbers are inactive results; . = no result given.

SMILES	BJeLR viability	Mtb hypoxia inh	Mtb hypoxia inh growth	Sa ugtP lethal	PrP 5UTR inh	RN4220 kill	Bead autofluor
CCOC(=O)c1c(NC(=O)Cn2nnc(-c3ccc(Cl)cc3)n2)sc(CC)c1C	.	2	-1	0	0	19	2419
N/C(=N\OC(=O)COc1ccccc1)c1ccc(Cl)cc1	2	7	11	13	-28	3.8	2442
CCOC(=O)CSc1nnc2cc(C)c3ccccc3n12	2	.	.	-5	-21	0.6	2749
CCn1cc(C(=O)NCCCN2CCC(C)CC2)c2cc(OC)c(OC)cc2c1=O	5	6	0	12	1	0.9	4501
CN(CCCC1CCCC1)C(=O)c1cc(COc2ccc(F)cc2F)on1	-5	12	8	-16	-14	-2.7	5916
O=C(CN(CC1CCCO1)C(=O)Cn1nnc(-c2ccc(F)cc2)n1)NC1CCCCC1 (configuration not stated)	-9	1	6	-4	0	5.2	10019
O=C(NN=Cc1ccco1)c1ccc(NC(=O)c2ccc(Cl)cc2)cc1	.	-8	2	-8	.	2.2	.
Cc1ccc(C(=O)N(CC(=O)Nc2ccc(Cl)c(Cl)c2)Cc2ccco2)cc1	-2	3	1	-9	-12	4.2	2060
CCOc1ccc(N2CC(C(=O)N/N=C/c3sccc3C)CC2=O)cc1 (configuration not stated)	-4	.	.	.	-21	.	5403
CCN1C(=O)[C@H]2[C@H]3CN=C(SCc4ccc(Cl)cc4)N3[C@@](CC)(C(=O)OC)[C@H]2C1=O	.	-2	0	1	-12	2.6	3024
CCCn1nnc(NC(=O)c2ccc(-c3cc(Cl)ccc3Cl)o2)n1	-6	-3	-10	-4	-21	3.6	2181
COc1ccc(Br)cc1S(=O)(=O)N1CCN=C1C	4	10	1	8	-28	6.4	2453
O=C(Cn1cc2c(n1)CCCC2)NC1CCN(Cc2ccccc2)CC1	-6	.	.	4	-11	2.0	6048
CCC(=O)Nc1nnc(SCc2ccc(F)cc2)s1	-2	.	.	-7	-7	4.9	2710
CN(C)CCNC(=O)c1cccc(S(=O)(=O)Nc2ccccc2F)c1	5	0	1	15	-36	21	4649
O=C(OCC(=O)N(CCc1ccccc1)Cc1ccccc1)c1ccccc1O	1	-11	2	2	-7	-1.9	5651
CCCc1[nH]n(-c2ccc([N+](=O)[O-])cc2)c(=O)c1C=NCCc1ccc(OC)c(OC)c1	0	-12	5	-12	-6	2.3	5759
O=C(NCc1ccco1)c1nc2c(nnn2Cc2cccc(Cl)c2)c(=O)[nH]1	3	19	4	0	-21	6.9	10878
O=C1CC(c2ccc3c(c2)OCO3)C2=C(CCCC2=O)N1 (configuration not stated)	-7	.	.	-3	5	0.7	2791
O=C(Cc1n[nH]c(=O)c2ccccc12)NCc1ccccc1	7	2	2	6	-17	5.2	4873
Cc1nc2ccc(Br)cn2c1C(=O)NN=Cc1ccc(C(C)C)cc1	.	25	17	0	.	1.1	.
CCOC(=O)c1c(C)[nH]c(C)c1C(=O)CSc1nnc(-c2ccc(OC(F)F)cc2)o1	4	-1	12	-33	2	0.6	2483
O=C(c1cccc([N+](=O)[O-])c1)N1CCN(C/C=C/c2ccccc2)CC1	-10	15	8	12	-9	0.5	4486
CCN(c1cccc2ccccc12)S(=O)(=O)c1cccs1	.	11	11	3	-5	-4.4	6168
CCC(C)Sc1ccc(C2N[C@@](Cc3ccccc3)(C(=O)OC)C3C(=O)N(CC)C(=O)C23)cc1OC (some centres not stated)	.	-2	-2	-1	.	2.4	.
Cc1cc(S(=O)(=O)NCCCn2ccnc2)c(C)cc1Cl	1	-6	1	6	-35	3.9	3353
CC(=NNC(=O)COc1ccccc1[N+](=O)[O-])c1cccc(NC(=O)c2ccncc2)c1	.	3	5	-18	.	1.7	.
S=C(N/N=C/c1cccc2ccccc12)Nc1cccc(Cl)c1	2	.	.	.	-24	.	3805
CCCOC(=O)c1c(NC(=O)/C=C/c2cnn(C)c2C)sc(C(=O)OCC)c1C	-1	-6	1	-10	.	7.3	10453
CCOc1ccccc1CN1CCNC(=O)C1CC(=O)N(C)CCc1cnn(C)c1 (configuration not stated)	-4	3	-2	-1	-13	1.9	5164

Some of these compounds in order of SMILES length, high to low:
SMILES	BJeLR viability	Mtb hypoxia inh	Mtb hypoxia inh growth	Sa ugtP lethal	PrP 5UTR inh	RN4220 kill	Bead autofluor
CCC(C)Sc1ccc(C2N[C@@](Cc3ccccc3)(C(=O)OC)C3C(=O)N(CC)C(=O)C23)cc1OC (some centres not stated)	.	-2	-2	-1	.	2.4	.
CCCc1[nH]n(-c2ccc([N+](=O)[O-])cc2)c(=O)c1C=NCCc1ccc(OC)c(OC)c1	0	-12	5	-12	-6	2.3	5759
CC(=NNC(=O)COc1ccccc1[N+](=O)[O-])c1cccc(NC(=O)c2ccncc2)c1	.	3	5	-18	.	1.7	.
O=C(c1cccc([N+](=O)[O-])c1)N1CCN(C/C=C/c2ccccc2)CC1	-10	15	8	12	-9	0.5	4486
O=C(NCc1ccco1)c1nc2c(nnn2Cc2cccc(Cl)c2)c(=O)[nH]1	3	19	4	0	-21	6.9	10878
CCOc1ccccc1CN1CCNC(=O)C1CC(=O)N(C)CCc1cnn(C)c1 (configuration not stated)	-4	3	-2	-1	-13	1.9	5164
O=C(OCC(=O)N(CCc1ccccc1)Cc1ccccc1)c1ccccc1O	1	-11	2	2	-7	-1.9	5651
Cc1nc2ccc(Br)cn2c1C(=O)NN=Cc1ccc(C(C)C)cc1	.	25	17	0	.	1.1	.
S=C(N/N=C/c1cccc2ccccc12)Nc1cccc(Cl)c1	2	.	.	.	-24	.	3805
O=C(Cc1n[nH]c(=O)c2ccccc12)NCc1ccccc1	7	2	2	6	-17	5.2	4873
CCN(c1cccc2ccccc12)S(=O)(=O)c1cccs1	.	11	11	3	-5	-4.4	6168

Next part
SMILES	BJeLR viability	Mtb hypoxia inh	Mtb hypoxia inh growth	Sa ugtP lethal	PrP 5UTR inh	RN4220 kill	Bead autofluor
C/C(=N\NC(=O)C1(C)CC1(Br)Br)c1cccc(NC(=O)C(C)(C)C)c1 (configuration not stated)	-4	.	.	.	-15	.	2741
COC(=O)C1=C(C(=O)OC)[C@@H]2N(C)c3ccccc3[C@@]23C[C@@H](C(=O)OC)N(C(=O)COCc2ccccc2)C3=N1	-7	.	.	.	-9	.	2809
CN1CC2C3C(=O)N(Cc4ccccc4)C(=O)C3[C@](C)(C1=O)N2C(=O)c1ccc(Br)cc1 (some centres not stated)	.	19	6	2	.	2.7	.
COc1ccc(N(CC(=O)Nc2ccc(C)cc2C)S(=O)(=O)c2c(C)n[nH]c2C)cc1	1	-4	-5	11	4	5.1	4093
Cc1cc(NC(=O)c2cccc(F)c2)ncc1NC(=O)c1ccco1	11	.	.	-1	-80	-0.7	4645
COc1ccccc1NC(=O)C(=O)Nc1ccccn1	2	3	12	-6	-133	3.5	9362
CCn1c(SCC(=O)Nc2ccc(NC(C)=O)cc2)nnc1C1CC1	-7	.	.	-2	-28	1.0	4633
O=C(CNCc1ccc(Cl)cc1)NCc1ccco1	-5	12	-2	5	-31	4.1	3216
Nn1c(Cc2cccc3ccccc23)nnc1SCC(=O)N1CC(=O)Nc2ccccc21	-5	-1	5	-2	8	2.2	3232
CN(C)CCNc1ncnc2c1cnn2-c1ccc(Cl)cc1	16	13	-1	7	-67	-6.7	4573
O=C(Nc1ccccc1O)c1ccccc1O	6	-8	-2	6	-28	25	4567
Cc1ccc(S(=O)(=O)N2CCOCC2)cc1C(=O)Nc1ccccc1N1CCCC1	8	10	6	8	-19	3.7	5038
CN1CCN(C(CNS(=O)(=O)c2ccc([N+](=O)[O-])cc2)c2ccc(F)cc2)CC1 (configuration not stated)	8	2	0	4	-14	7.4	.
COc1cc(C(=O)Nc2cccc3ncccc23)cc(OC)c1OC	9	.	.	0	-20	3.6	4241
COc1ccc([N+](=O)[O-])cc1NC(=O)c1ccc(Br)s1	5	-8	2	4	-11	-4.1	4361
Cc1onc(-c2ccccc2Cl)c1C(=O)OCc1cnc(Cl)s1	4	2	1	3	-25	-3.4	3394
CC(=O)NC(=S)Nc1ccccc1N1CCN(C(=O)c2ccccc2)CC1	-2	-8	7	-3	-9	6.3	2480
Cc1ccc(C2Nc3cccc4cccc(c34)N2)cc1	1	6	-5	0	-38	1.4	2950
Cc1cccn2cc(-c3ccc4c(c3)NC(=O)CO4)nc12	1	-9	1	-3	-36	3.8	4245
Cc1ccc(NCc2nnc(SCC(=O)Nc3ccccc3)n2CC2CCCO2)c(C)c1 (configuration not stated)	0	-1	5	9	-1	-7.4	3922
CCOC(=O)N1CCC(NC(=O)C2CCN(C(=O)c3cc4sccc4n3CC)CC2)CC1	1	10	-2	2	0	6.3	5867
CCOP(=O)(OCC)c1ccc2ccc3ccccc3c(=O)c2c1	.	13	8	5	-9	12	2847
CC(=O)Nc1cccc(C(C)=NNS(=O)(=O)c2ccc(C)cc2)c1	.	11	5	-3	.	6.9	.
COc1ccc(CSc2n[nH]c(C)n2)cc1[N+](=O)[O-]	1	-3	-2	6	-8	4.2	2529
CCc1ccccc1N(CC(=O)NCCc1ccccc1)C(=O)CCC(=O)Nc1ccccn1	-4	-15	-4	1	-23	-0.6	5779
O=C(NCCN1CCCC1)c1ccc(Cl)cc1Cl	-1	4	3	8	-13	2.7	3966
O=C(NC1CCS(=O)(=O)C1)c1ccc(S(=O)(=O)N2CCCCC2)cc1 (configuration not stated)	-4	8	3	13	-6	9.8	4196
O=C(Oc1cccc(F)c1)c1ccc2c(=O)n3c(nc2c1)CCC3	-6	.	.	.	9	.	5853
c1ccc(OCCCc2nc(-c3cccnc3)no2)cc1	-2	10	9	-3	-30	0.6	9725
CN(C)CCn1c(NC(=O)c2ccc(Cl)cc2)nc2ccccc21	-7	-7	-2	6	-37	2.7	13523

The list goes on; it opens with the two that closed the last part.
SMILES	BJeLR viability	Mtb hypoxia inh	Mtb hypoxia inh growth	Sa ugtP lethal	PrP 5UTR inh	RN4220 kill	Bead autofluor
c1ccc(OCCCc2nc(-c3cccnc3)no2)cc1	-2	10	9	-3	-30	0.6	9725
CN(C)CCn1c(NC(=O)c2ccc(Cl)cc2)nc2ccccc21	-7	-7	-2	6	-37	2.7	13523
Cc1ccccc1NC(=O)Cc1nc(COC(=O)c2cc([N+](=O)[O-])ccc2NCCO)cs1	-8	2	-3	6	-21	-0.1	4869
NC(=O)C(CC(=O)O)NC(=O)C1CCOc2c(I)cc([N+](=O)[O-])cc2C(=O)NC(CO)C(=O)NC(Cc2ccc(O)cc2)C(=O)N1 (configuration not stated)	.	9	-1	1	.	7.1	.
Cc1ccc(C=Nn2cnc3sc(C)c(C)c3c2=O)o1	.	5	3	4	.	3.8	.
O=c1[nH]c(N2CCCCC2)nc2ncn(Cc3ccccc3)c12	-6	2	22	-6	-20	1.0	3966
CCC(C)c1ccc(NC(=O)C2CCCN(c3ncccn3)C2)cc1 (configuration not stated)	1	12	1	5	-30	2.9	8435
COc1ccc(CCNC(=O)[C@H](CCSC)NC(=O)N2CCn3c2nc2ccccc23)cc1OC	-4	4	12	4	-1	3.6	5837
CCn1c2ccccc2c2cc(NC(=O)CSc3nnc(-c4cccc(Cl)c4)o3)ccc21	-6	3	5	-24	-12	-15	3129
O=C(COC(=O)c1ccccc1Nc1ccc(SC(F)F)cc1)NCc1ccco1	-7	-7	-1	1	3	-0.6	2378
CSCCOC(=O)C1=C(C)Nc2ccc(C)cc2S1	-5	11	5	1	-23	-2.3	2737
Cc1ccc(S(=O)(=O)NCCSc2nnnn2C)cc1	1	1	1	1	-16	1.2	9814
O=C(NCc1cccc(CNC(=O)C(=O)NCc2ccco2)c1)C(=O)NCc1ccco1	-4	-13	-11	0	-9	5.0	2437
CC(=O)c1ccccc1NC(=O)CN1C(=O)CS/C1=C\c1nc(-c2ccc(C)cc2)cs1	-2	0	-4	0	-17	6.9	3953
COC(=O)CSC1=C(C#N)C(c2ccc3c(c2)OCO3)C2=C(CCCC2=O)N1 (configuration not stated)	8	.	.	12	-1	4.8	3564
CC(=O)c1sc(NCCOc2ccc(C)cc2)nc1C	-5	-3	11	4	-63	1.8	2134
Clc1ccccc1CNC1CN2CCC1CC2 (configuration not stated)	11	9	1	1	-18	0.8	2141
Cc1c(N=c2scc(-c3ccccc3)n2C)c(=O)n(-c2ccccc2)n1C	-3	7	2	-6	-7	5.0	4418
CCOc1ccc(C2C(C(=O)c3ccco3)=C(O)C(=O)N2CCCn2ccnc2)cc1 (configuration not stated)	0	7	9	-7	-34	4.9	10505

Source: PubChem
